# High-throughput results (PubChem)
# 2A StopGo: lowers the luciferase signal of an FMDV 2A StopGo reporter; human cells with a luciferase reporter of 2A StopGo recoding; control for the full effect not named in the record; actives 1.2% (n = 410,000); AID 1159524; Potency, µM (doses to about 57.9 µM), without a hit: at the highest dose signal change, negative = less light; active = well fitted falling curve with a large enough effect; inconclusive = small, poorly fitted or top-dose-only effect; inactive = no such curve, though single readings can be large or run the other way; tested in HEK293T cells; note: % is set by controls: 0 for no effect and ±100 for the full control effect; nearly all actives have a fitted effect of over 45% in size; luciferase light after 4 h
# Cruzain inh noDet: cruzain (T. cruzi) inhibition without detergent | P25779 | purified cruzain, Z-FR-AMC fluorescence, no detergent | Potency, µM, for inactives: max response, negative = inhibition, actives largely listed as inhibitors | actives 2.3% (n = 200,000) | AID 1476;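 note: plate controls were enzyme without inhibitor for no effect and buffer without enzyme for full effect; nearly all actives have a fitted effect of over 40% in size; top concentration of the series not given in the record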
# Target sequence (P25779 123-467 limits assumed): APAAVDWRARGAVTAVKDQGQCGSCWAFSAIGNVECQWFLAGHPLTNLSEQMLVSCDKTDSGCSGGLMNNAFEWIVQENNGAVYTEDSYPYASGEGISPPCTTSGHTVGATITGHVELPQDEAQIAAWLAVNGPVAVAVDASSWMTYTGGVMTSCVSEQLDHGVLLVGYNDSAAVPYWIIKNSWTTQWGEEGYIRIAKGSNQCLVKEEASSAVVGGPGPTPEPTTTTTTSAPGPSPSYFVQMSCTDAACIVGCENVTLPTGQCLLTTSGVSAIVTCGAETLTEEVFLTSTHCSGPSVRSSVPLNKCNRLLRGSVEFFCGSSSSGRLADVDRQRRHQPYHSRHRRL
#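 Detergent-free condition (0.00005% Triton X-100) in acetate buffer pH 5.5 with DTT. 1.5 nM enzyme and compound were pre-mixed 15 min, then 2 uM Z-FR-AMC substrate added; reaction progress from fluorescence change between first and third reads (60 s).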
# SARS PLpro yeast: inhibitors of SARS-CoV papain-like protease in yeast; S. cerevisiae expressing SARS-CoV PLpro, growth rescue; control for the full effect not named in the record; Potency, µM (highest dose often 32.9 µM), inactives show at the highest dose activity, positive = growth rescue; actives 0.19% (n = 330,000); AID 485353; active means well fitted rising curve with a large enough effect; inconclusive means small, poorly fitted or top-dose-only effect; inactive means no such curve, though single readings can be large or run the other way; note: 0% is about no effect; nearly all actives have a fitted effect of over 55% in size; growth read by luminescence after 48 h
# Marburg entry inh: Marburg virus entry inhibition | actives 1.8% (n = 300,000) | Marburg virus pseudotyped entry inhibition, cell reporter; control for the full effect not named in the record; about a third of the inactives were read at about 46 µM | Potency, µM (doses to about 37.8 µM), for inactives: at the top dose activity change, negative = inhibition, most hits filed as inhibitors; active = well fitted inhibition curve with a large enough effect; inconclusive = small, poorly fitted or top-dose-only effect, or effect the other way; inactive = flat fitted curve, though single readings scatter; tested in HEK293 cells; about a fifth of its hits are not listed in these tables; note: % is set by controls: 0 for no effect and ±100 for the full control effect; luciferase read-out
# RE007 growth inh: less growth of the S. pombe RE007 Vpr strain; S. pombe RE007 Vpr strain, BacTiter-Glo ATP luminescence, 24 h; control for the full effect not named in the record; Potency, µM (top dose mostly 92.2 µM), for the others: at the highest dose activity change, negative = less growth; actives 0.21% (n = 360,000); AID 651644; active = well fitted falling curve with a large enough effect; inconclusive = small, poorly fitted or top-dose-only effect; inactive = no such curve, though single readings can be large or run the other way;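 note: % is set by controls: 0 for no effect and ±100 for the full control effect; nearly all actives have a fitted effect of over 50% in size; the assay follows cell death caused by Vpr and the record does not say whether a fall means rescue or toxicity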
#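 Fission yeast strain RE007, carrying one chromosomally integrated HIV-1 vpr copy, was seeded at OD 0.01 in PMG+AL medium with 23 nL pinned compound. After 24 h at 30 °C and 99% humidity, viability was read by BacTiter-Glo luminescence.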
# Lassa entry inh: blocks Lassa virus binding to or entry into cells. AID 540256. Potency, µM (titrated, usually from 37.9 µM), for inactives: at the highest dose activity change, negative = inhibition, hits mostly inhibitors. actives 1.2% (n = 300,000). Lassa virus pseudotype entry inhibition, cell reporter; control for the full effect not named in the record; active means well fitted inhibition curve with a large enough effect; inconclusive means small, poorly fitted or top-dose-only effect, or effect the other way; inactive means flat fitted curve, though single readings scatter; tested in HEK293 cells; note: % is set by controls: 0 for no effect and ±100 for the full control effect; nearly all actives have a fitted effect of over 50% in size; luciferase read-out
# Cruzain inh Det: blocks cruzain activity in presence of Triton detergent; actives 0.43% (n = 200,000); P25779; purified cruzain, Z-FR-AMC fluorescence, 0.01% Triton; AID 1478; Potency, µM, without a hit: max response, negative = inhibition, most hits filed as inhibitors;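 note: plate controls were neutral wells for no effect and buffer without enzyme for full effect; nearly all actives have a fitted effect of over 40% in size; top concentration of the series not given in the record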
#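 Detergent-containing run (0.01% Triton X-100) in acetate buffer pH 5.5 with 5 mM DTT: enzyme at 1.5 nM final, 15 min compound preincubation at room temperature, then 2 uM Z-FR-AMC substrate. Activity taken as 60 s fluorescence increase at 360/450 nm.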
# NS1 function inh: inhibitors of influenza NS1 protein function | Potency, µM (top dose mostly 46.1 µM), without a hit: at the highest dose activity, positive = more growth | S. cerevisiae slowed by influenza A NS1, growth recovery by OD600 | actives 0.4% (n = 270,000) | AID 2326; active means well fitted rising curve with a large enough effect; inconclusive means small, poorly fitted or top-dose-only effect; inactive means no such curve, though single readings can be large or run the other way; note: nearly all actives have a fitted effect of over 50% in size
#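 OD600 was taken as the measure of yeast growth restored by compound in an NS1-expressing S. cerevisiae strain. Cells had been washed out of glucose medium and diluted 1:100 into galactose -URA medium, pH 6.0.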
# Active calls of the source: *; ? = inconclusive; . = not tested or not shown; [ ] = another dose, or the depositor's remark. Unless noted, calls come from the whole dose curve; as a rule, active = well fitted curve in the direction sought with a large enough effect; inconclusive = small, poorly fitted or top-dose-only effect, or another doubt; inactive = no such curve, though single readings can be large; an effect the other way counts as inactive or inconclusive. Potency is the fitted concentration of half-maximal effect.
structure,2A StopGo,Cruzain inh noDet,SARS PLpro yeast,Marburg entry inh,RE007 growth inh,Lassa entry inh,Cruzain inh Det,NS1 function inh
CC(=O)Nc1ccc(C(=O)N2CCCC2)cc1,-14%,-5%,-5%,17%,1%,?,1.0%,20%
Cc1cccc(-n2c(O)c(C=NC34CN5CN(CN(C5)C3)C4)c(=O)[nH]c2=O)c1,22%,.,-2%,-2%[46.1 µM],21%,8%,.,.
O=C(/C=C/c1ccc2c(c1)OCO2)c1ccco1,29%,4%,-56%,1%,?,-18%,-8.9%,10%
CC(NC(c1ccccc1)c1ccccc1)C(=O)N1CCCc2ccccc21 (stereo not given),?,-4%,-22%,-37%,-5%,?,-3.9%,-47%
Cc1cc(C)n2nc(SC(C)C(=O)Nc3ccc(Cl)cn3)nc2n1 (stereo not given),-6%,.,0%,27%[46.1 µM],1%,?,.,.
C=C(C)CNC(=S)NNC(=O)CCn1c2ccc(Cl)cc2c2cc(Cl)ccc21,-27%,-3%,?,-15%,18%,?,-5.8%,24%
Cc1ccc(-c2nc(CS(=O)(=O)CC(=O)N3CCCCCC3)c(C)o2)cc1,?,12%,7%,.,8%,.,3.8%,-4%
COc1cccc(Nc2ccc(-n3ccnc3)nn2)c1,-5%,.,0%,16%[46.1 µM],-7%,16%,.,-8%
Cc1ccccc1NC(=O)CN1C(=O)NC2(CCCCC2)C1=O,-17%,7%,1%,10%[46.1 µM],-6%,15%,4.5%,-9%
COc1cccc2cc(C(=O)NCCc3ccccc3)c(=O)oc12,47%[activator],.,-2%,?,-20%,?,.,-5%
CN(C)S(=O)(=O)c1cc(NC(=O)COC(=O)CC2Sc3ccccc3NC2=O)ccc1Cl (stereo not given),16%,.,-1%,?,2%,0%[46.1 µM],.,.
COc1ccc(N=C2C(=O)N3c4c(cccc42)C(C)=CC3(C)C)cc1,?,-4%,-22%,?,-22%,2%,-9.2%,-33%
COC(=O)c1c(C)oc2ccc(NS(=O)(=O)c3cc(OC)ccc3OC)cc12,?,?,5%,?,7%,?,-11%,0%
CCOc1ccc(N2CC(C(=O)Nc3nnc(CC)s3)CC2=O)cc1 (stereo not given),20%,.,-2%,-5%[46.1 µM],-5%,-7%,.,4%
Cc1ccc(CCNC(=O)C2CC(c3cc(C(F)(F)F)cc(C(F)(F)F)c3)=NO2)cc1 (stereo not given),-17%,.,4%,.,2%,.,.,5%
COc1ccc2cc(C(=O)C3CCCN(Cc4cnc(N5CCOCC5)s4)C3)ccc2c1 (stereo not given),-19%,.,-3%,?,-25%,-29%[46.1 µM],.,0%
CCOc1ccc(NC(=O)c2c(NC(=O)Cc3ccccc3)sc3c2CCC(C)C3)cc1 (stereo not given),-3%,2%,.,.,.,-13%[46.1 µM],-3.6%,.
C[n+]1ccc(/C=C/c2ccc(Br)cc2)cc1,-15%,?,-6%,?,0%,-24%,-17%,-2%
CCC(C)c1ccc(NC(=O)NCc2cccnc2)cc1 (stereo not given),15%,.,3%,?,5%,-25%,.,0%
CCOC(=O)c1sc(NC(=S)NC(=O)c2cccc(OC)c2)nc1C,11%,.,-1%,-3%,16%,-2%,.,-1%
CC(OC(=O)/C=C/c1ccc2ccccc2n1)C(=O)Nc1ccc(S(N)(=O)=O)cc1 (stereo not given),?,.,-10%,?,0%,-48%,.,.
CCC1CCCCN1CCCNC(=O)CCCNC(=O)Cn1cnc2sc3c(c2c1=O)CCCC3 (stereo not given),-16%,.,1%,1%[46.1 µM],-12%,5%[46.1 µM],.,.
CCC1=Nc2cc(C(=O)NCc3ccccc3OC)ccc2Sc2ccc(Cl)cc21,-11%,32µM*,.,.,.,0%[46.1 µM],0.9%,.
CCn1cc(C(=O)OCC(=O)Nc2c(C)n(C)n(-c3ccccc3)c2=O)c(=O)c2ccc(C)nc21,-23%,-1%,3%,?,13%[3.69 µM],-25%,-2.4%,-18%
Cc1cc(Cl)c2oc(C(=O)N3CCN(C(=O)c4ccco4)CC3)c(C)c2c1,-8%,.,-21%,.,-8%,.,.,-21%
O=S(=O)(NCc1ccco1)c1cccc2cccnc12,25%,-1%,0%,20%,-12%,22%,-0.9%,6%
O=C(CSc1nc2ccccc2c(=O)n1-c1ccccc1)NCC1CCCO1 (stereo not given),38%[activator],.,-4%,-1%[46.1 µM],-1%,10%[46.1 µM],.,5%
Cc1ccc(C(=O)Nc2nnc(-c3ccco3)o2)cc1C,24%,-2%,6%,?,-10%,-20%,4.6%,7%
COC(=O)c1cnc(SCc2ccc(Cl)cc2)n1C,20%,.,-1%,-32%[46.1 µM],5%,24%,.,.
Cc1ccc(NC(=O)c2cccc3c(=O)c4c([nH]c23)CCCC4)c(C)c1,-13%,8%,.,?,.,8%[46.1 µM],-5.2%,.
O=C(C[C@H]1C[C@H](C(=O)N2CCOCC2)[C@@]2(CCC3CCCC3)c3[nH]c4cc(-c5ccco5)ccc4c3CCN2C1=O)NCc1ccco1,-22%,.,-7%,1%,8%,.,.,.
CCCC(C)n1[nH]c(=O)c2c1NC(=O)CSC2c1ccc(OC)cc1 (stereo not given),-24%,-5%,-8%,11%,-1%,12%,-1.3%,-3%
Cc1cccc(NC(=O)c2ccc3nccnc3c2)c1C,6%,.,-3%,6%[46.1 µM],5%,27%[46.1 µM],.,4%
O=C(CN1CCN(S(=O)(=O)c2ccc(F)cc2)CC1)Nc1ccc(Cl)cn1,-19%,.,-3%,.,-8%,.,.,-16%
CCCc1cc(=O)[nH]c(SCC(=O)C(C)(C)C)n1,-2%,-8%,-4%,8%,-18%,6%,-10%,22%
O=[N+]([O-])c1cc([N+](=O)[O-])c(Oc2cc(F)ccc2F)cc1NN1CCCCC1,-17%,.,16%,.,14%,.,.,13%
CCC(C(=O)NN1C(=O)c2ccccc2C1=O)c1ccccc1 (stereo not given),-7%,.,3%,25%[46.1 µM],36%,9%,.,.
Cc1[nH]n(-c2ccccc2)c(=O)c1C=NCC1CCCO1 (stereo not given),39%[activator],.,-1%,.,-3%,.,.,5%
Cc1c(C)n(Cc2ccccc2)c2ccc(C(=O)NCCCN3CCOCC3)cc12,22%,.,6%,?,9%,?,.,-3%
CN(NC(=O)c1ccc(Cl)cc1)c1ncc(C(F)(F)F)cc1Cl,-24%,.,-1%,-23%,1%,3%,.,5%
COCCNC(=O)c1ccccc1-c1nc(-c2ccccc2OC)no1,13%,5%,-2%,7%,1%,?,2.9%,1%
Fc1ccccc1N1CCN(c2ncnc3[nH]ncc23)CC1,?,-4%,-1%,5µM*,-2%,10µM*,-1.2%,-15%
CCOc1cc(C(=O)Nc2ccc3oc(-c4ccc(CC)cc4)nc3c2)cc(OCC)c1OCC,?,-5%,.,.,.,-4%[46.1 µM],-1.5%,.
CCN1CCN(C(=O)CCc2nnc3ccc(N4CCN(c5cccc(OC)c5)CC4)nn23)CC1,-12%,.,10%,.,-6%,.,.,5%
Cc1cc(=O)[nH]c(SCC(=O)c2ccc(O)c(O)c2)n1,-4%,.,-14%,?,4%,15%[46.1 µM],.,-21%

# In the list so far, 5 have an aryl thioether with sulfur outside any ring:
structure,2A StopGo,Cruzain inh noDet,SARS PLpro yeast,Marburg entry inh,RE007 growth inh,Lassa entry inh,Cruzain inh Det,NS1 function inh
Cc1cc(C)n2nc(SC(C)C(=O)Nc3ccc(Cl)cn3)nc2n1 (stereo not given),-6%,.,0%,27%[46.1 µM],1%,?,.,.
O=C(CSc1nc2ccccc2c(=O)n1-c1ccccc1)NCC1CCCO1 (stereo not given),38%[activator],.,-4%,-1%[46.1 µM],-1%,10%[46.1 µM],.,5%
COC(=O)c1cnc(SCc2ccc(Cl)cc2)n1C,20%,.,-1%,-32%[46.1 µM],5%,24%,.,.
CCCc1cc(=O)[nH]c(SCC(=O)C(C)(C)C)n1,-2%,-8%,-4%,8%,-18%,6%,-10%,22%
Cc1cc(=O)[nH]c(SCC(=O)c2ccc(O)c(O)c2)n1,-4%,.,-14%,?,4%,15%[46.1 µM],.,-21%

# Continued:
structure,2A StopGo,Cruzain inh noDet,SARS PLpro yeast,Marburg entry inh,RE007 growth inh,Lassa entry inh,Cruzain inh Det,NS1 function inh
COc1ccc2oc(C(=O)Nc3nc(-c4ccccn4)cs3)c(C)c2c1,-1%,.,-4%,1%,?,4%,.,.
COc1cc(/C=C/C(=O)NNC(=O)c2cccc(S(=O)(=O)N(C)C)c2)cc(OC)c1OC,9%,.,-3%,0%,-14%,15%[46.1 µM],.,.
CCOC(=O)c1ccc(S(=O)(=O)Nc2ccc3cn[nH]c3c2)cc1,-19%,3%,-8%,-27%,1%,?,0.2%,10%
O=C(N/N=C/c1ccccc1O)C1CC(=O)N(c2ccc(F)cc2)C1 (stereo not given),6%,.,-1%,?,?,?,.,-4%
Cc1conc1NC(c1cccs1)c1ccc2cccnc2c1O (stereo not given),.,?,-37%,1%,.,.,-1.5%,-252%
CCOc1ccc(NC(=O)CN2C(=O)CC(C)Sc3ccccc32)cc1 (stereo not given),-8%,5%,.,3%[46.1 µM],.,.,-2.7%,.
CCS(=O)(=O)N1CCC(C(=O)c2ccc(Cl)cc2)CC1,-21%,0%,4%,3%,-1%,-1%,-3.0%,14%
CSc1nsc(SCC(=O)Nc2ccccc2F)n1,36%[activator],.,-1%,?,16%,.,.,-1%
CCOCCCNC(=O)c1ccc(NC(=O)N2CCCCc3ccccc32)cc1,-10%,5%,.,.,.,?,-1.7%,.
CCc1cc2c(cc3c(=O)n(CC(=O)N4CCC(C)CC4)nc(CC)n32)s1,-4%,-3%,.,6%[46.1 µM],.,.,-2.3%,.
